# High-throughput results: PubChem, Johns Hopkins Ion Channel Center
# KCNQ2 pot: potentiators of rat KCNQ2 potassium channel. AID 2239, 2010. CHO-K1 KCNQ2, FluxOR thallium flux fluorescence; hits give high values. Potassium voltage-gated channel subfamily KQT member 2 (Rattus norvegicus), O88943. hit rate 0.54% among 310,000. B-score at 10 µM;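 active = fluorescence ratio B-score at least 3 SD of library B-scores, with initial fluorescence B-score within 3 SD, cut at about 5.3 in these data; same plate scores as AID 2156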;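 also: B-score of peak minus minimum over baseline fluorescence ratio after K+ and Tl+ stimulus; positive B-score means potentiation of KCNQ2 with more thallium influx and brighter signal; only the inactives scoring about 0 or higher are listed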
# Target sequence (O88943 whole entry, looked up): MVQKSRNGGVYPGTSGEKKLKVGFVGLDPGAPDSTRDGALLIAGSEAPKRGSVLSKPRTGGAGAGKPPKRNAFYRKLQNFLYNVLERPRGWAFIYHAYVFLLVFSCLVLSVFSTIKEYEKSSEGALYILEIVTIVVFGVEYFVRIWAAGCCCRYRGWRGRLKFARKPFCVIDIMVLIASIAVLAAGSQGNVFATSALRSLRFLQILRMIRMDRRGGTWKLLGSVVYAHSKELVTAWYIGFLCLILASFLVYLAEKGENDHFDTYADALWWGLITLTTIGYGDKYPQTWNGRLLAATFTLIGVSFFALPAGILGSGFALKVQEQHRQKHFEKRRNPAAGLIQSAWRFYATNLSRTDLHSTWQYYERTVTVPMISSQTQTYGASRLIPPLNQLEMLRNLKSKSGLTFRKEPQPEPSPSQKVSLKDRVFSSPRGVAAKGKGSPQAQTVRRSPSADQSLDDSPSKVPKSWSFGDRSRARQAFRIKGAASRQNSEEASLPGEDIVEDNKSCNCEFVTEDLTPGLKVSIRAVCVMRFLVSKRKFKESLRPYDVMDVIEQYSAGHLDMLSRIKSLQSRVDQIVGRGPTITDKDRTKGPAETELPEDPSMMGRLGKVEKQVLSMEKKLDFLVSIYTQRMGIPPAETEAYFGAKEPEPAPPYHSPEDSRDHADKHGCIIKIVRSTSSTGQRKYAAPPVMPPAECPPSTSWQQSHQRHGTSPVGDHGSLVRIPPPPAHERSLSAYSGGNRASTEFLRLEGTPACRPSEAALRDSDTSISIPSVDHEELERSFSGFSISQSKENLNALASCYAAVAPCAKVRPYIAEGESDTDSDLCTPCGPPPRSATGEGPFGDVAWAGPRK
# KCNQ2 pot baseline: second read-out of KCNQ2 pot, no call of its own (marks repeat the call); B-score; compound at 10 µM; measured here: initial fluorescence intensity artifact check;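 brightness before thallium and not channel activity; 0 = typical well and far values either way flag optical interference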
# * hit, by the source's call. The list is partial; the hit share may differ from the screen's.
molecule	KCNQ2 pot	KCNQ2 pot baseline
CC(C)c1cccc(C(C)C)c1OC(=O)NC(=O)c1c(F)cccc1F	0.04	2.69
COc1ccc(CC(=O)Nc2ccc(N3CCCCC3)cc2)cc1	1.06	-0.24
Cc1cc(C)nc(SC2CC(=O)N(c3ccc(Cl)cc3)C2=O)n1 (stereo unspecified)	0.02	-1.11
Cc1cccc(OCC(=O)Nc2ccc3c(c2)nc(CCN2CCN(c4ccccn4)CC2)n3C)c1	0.42	-0.46
CC(C)Sc1nc2c(cnn2-c2ccc(F)cc2)c(=O)[nH]1	0.01	1.02
Cc1cccc(Nc2nc(NCCCN3CCOCC3)nc(N)c2[N+](=O)[O-])c1	1.16	-1.74
O=S(=O)(c1ccc(F)cc1)N1CCN(C(=S)NCCc2ccccc2)CC1	0.78	-1.14
COc1ccc(-n2c(=S)[nH]c3cc(C(=O)N4CCN(c5ccccc5)CC4)ccc3c2=O)c(OC)c1	0.1	0.04
CCOc1c(S(=O)(=O)NC2CC(C)(C)NC(C)(C)C2)ccc(Cl)c1Cl	1.04	2
COc1cc(-n2c(=O)c3ccccc3n(CC(=O)c3ccccc3)c2=O)cc(OC)c1OC	0.95	1.43
CCCn1nc2cc(C(=O)NCc3ccc4c(c3)OCO4)ccc2c1OCC	0.01	-0.33
Cc1ccccc1C(=O)Nc1cccc(NC(=O)c2cccnc2)c1	0.03	-0.81
Cc1ccccc1-n1nnnc1SCC(=O)Nc1ccc(S(=O)(=O)N2CCCC2)cc1	0.18	-0.67
CCc1ccc2[nH]c(=O)c(C(c3nnnn3CCOC)N3CCN(c4ccc(F)cc4)CC3)cc2c1 (stereo unspecified)	2.98	-0.3
Cc1ccc(S(=O)(=O)NNC(=O)Nc2cccc(C)c2C)c(C)c1	0.11	-0.01
Cc1ccc(S(=O)(=O)NC(=O)Nc2nnc(C3CC3)s2)cc1	1.6	-0.5
COc1ccccc1-n1c(SCC(=O)O)nnc1-c1ccc(S(=O)(=O)N2CCCCC2)cc1	0.09	-0.91
Cc1nc(N2CCOCC2)nc(OC(C)C)c1[N+](=O)[O-]	2.04	1.77
COc1cc(NS(=O)(=O)c2ccc(NS(=O)(=O)c3ccccc3)cc2)nc(OC)n1	0.31	-0.34
COc1cc(NC(=O)c2ncn[nH]2)cc(OC)c1OC	2.03	-0.07
Cc1nnc(SCCn2c(N3CC(C)CC(C)C3)nc3c2c(=O)n(C)c(=O)n3C)s1 (stereo unspecified)	0.85	0.41
CN(C)S(=O)(=O)N1CCN(c2ccnc3cc(Cl)ccc23)CC1	1.87	-1.07
CCN1C(=O)CC(N2CCOCC2)C1=O (stereo unspecified)	0.05	-0.03
COc1ccc(CNC(=O)c2ccc(Br)s2)cc1OC	1.26	-0.18
O=C(CSc1nnc(Cc2ccc(Cl)cc2)o1)Nc1ccccc1	0.32	0
C/C(N)=C(/C#N)C(=O)CSc1nc2ccccc2n1CC(C)C	1.53	-1.01
O=C(NCc1ccco1)c1cccc(N2CCCC2=O)c1	0.55	-1.27
CCOC(=O)N1CCC(NC(=O)CCc2ccccc2)CC1	0.18	-0.3
COc1ccc(CCNC(=O)CN2CCN(c3cccc(Cl)c3)CC2)cc1OC	0.14	-0.69
COc1ccc(NC(=O)CCCNC(=O)Cn2cnc3sc(C)c(C)c3c2=O)cc1OC	0.31	-3.77
O=C(NCc1cccnc1)C1CCCN(Cc2cnn(-c3ccccc3)c2-n2cccc2)C1 (stereo unspecified)	1.4	-0.37
Cc1ccc(-c2nc3c(Cl)cc(Cl)cc3c(=O)n2O)cc1	16.6*	-1.12*
N#Cc1c(N)nc(SCc2ccncc2)c(C#N)c1-c1cccs1	0.83	0.99
COC(=O)C1=C(C)N(CCc2cc(OC)c(OC)c(OC)c2)C(=O)N[C@H]1c1cccs1	0.13	-0.51
CS(=O)(=O)c1nc2c(cc1C#N)CCCC2	0.02	-0.49
COCCCn1c(SCC(=O)NNC(=O)c2cccc(O)c2)nnc1-c1ccncc1	0.53	0.98
COc1ccccc1OCc1nnc(SCC(=O)Nc2nnc(C3CC3)s2)n1C	0.23	-0.09
CCN1CCCC1CNCc1ccc(Cl)cc1Cl (stereo unspecified)	0.24	-1.17
CCC1S/C(=C(\C#N)C(=O)NCc2ccco2)N(c2ccc(F)cc2)C1=O (stereo unspecified)	0.53	0.35
Cc1cnc(NC(=O)CCNC(=O)c2ccccc2Cl)s1	0.45	-0.69
COc1ccc2c(c1OC)C(=O)OC2CC(=O)c1ccc2c(c1)OCO2 (stereo unspecified)	1.31	-1.08
Cc1ccc(NC(=O)CN2CCCC2)c2c1CC(C)(C)O2	1.23	-1.22
N#Cc1cccc2c1-c1ccccc1/C2=N/NC(N)=O	0.59	-0.39
CN(C)c1ccc(CN(C(=O)c2ccco2)C2CCS(=O)(=O)C2)cc1 (stereo unspecified)	0.75	-0.05
CC(=O)c1cc(C(=O)N2CCc3c([nH]c4ccccc34)C2C2CCCCC2)[nH]n1 (stereo unspecified)	1.62	0.97
O=C(c1nc2nc(-c3cccs3)cc(C(F)(F)F)n2n1)N1CCN(Cc2ccccc2)CC1	0.74	-0.13
COc1ccc(OC)c(/C=N/N=C(\N)c2nonc2N)c1	0.69	-0.03
COc1ccc(C2N(C(=O)N(C)C)CCN2S(=O)(=O)c2ccc(OC)cc2)cc1 (stereo unspecified)	0.92	0.04
Cc1ccc(C(=O)Oc2coc(CSc3nnc(NC(=O)c4cccs4)s3)cc2=O)cc1C	3.96	-0.76
Cc1ccc(NC(=O)Nc2ccc3c(c2)CCC3)c(C)c1	0.39	-0.01
CC(C)COc1cc(=O)[nH]c(SCC(C)C)n1	0.03	0.03
O=C(O)c1ccc2c(=O)n3cc(C(=O)c4ccccc4O)cc(Cl)c3nc2c1	2.85	-0.08
N#Cc1nc(Cc2ccccc2)oc1N1CCC(C(N)=O)CC1	0.04	-1.26
CSCCC(N=C1NS(=O)(=O)c2ccccc21)C(=O)NCc1ccccc1F (stereo unspecified)	1.94	-0.79
COc1ccccc1C(=O)NC(CCSC)C(=O)NCCCn1nc(C)cc1C (stereo unspecified)	1.03	0.24
COc1ccc2[nH]c(=O)c(-c3noc(-c4ccccc4)n3)cc2c1	0.04	-0.79
CC(C)N(CCCNC(=O)C1CCN(S(=O)(=O)N2CCOCC2)CC1)Cc1ccccc1	0.21	-0.3
COC(C[C@@H]1O[C@H]1[C@@H](O)[C@@H](C)OCc1ccccc1)OC	0.28	-0.62
CCOc1ccccc1NC(=O)Cn1cnc2c(nnn2-c2cccc(OC)c2)c1=O	0.37	0.05
CC(=O)N1CCc2cc(S(=O)(=O)NCCC(=O)Nc3cccc(C)c3)ccc21	0.31	0.64

# More structures follow:
molecule	KCNQ2 pot	KCNQ2 pot baseline
Cc1cccn2c(=O)c3cc(C(=O)NCCN4CCOCC4)c(=N)n(CCc4ccccc4)c3nc12	0.24	-0.43
COc1ccccc1NC(=O)CN(Cc1ccccc1)S(C)(=O)=O	2.23	-0.29
COC(=O)c1nc2cc(C)ccn2c1F	0.06	0.82
CCOC(=O)N1CCN(c2c(NCCc3ccccc3)c(=O)c2=O)CC1	2.43	0.09
CCOc1cccc(C2C(C(=O)c3cccs3)=C(O)C(=O)N2Cc2cccnc2)c1 (stereo unspecified)	0.63	1.78
CCCCNC(=O)c1onc(CSc2cccc(F)c2)c1C(=O)O	0.49	0.34
O=c1c2ccccc2cnn1-c1ccc(Br)cc1	0.09	-2.05
CN1CCN(c2ccccc2NC(=O)c2ccc([N+](=O)[O-])cc2Cl)CC1	0.57	1.44
O=C(c1cccc(F)c1F)N1CCCC1	0.93	1.28
COCCSc1nnc(-c2cccc(C#N)c2)n1C	0.52	0.84
CN(C)S(=O)(=O)N1CCC(Oc2ccc(C(=O)N3C[C@H]4CC[C@H]3C4)cc2)CC1	1.77	0.74
C/C(N)=C(\C#N)C(=O)NCc1ccccn1	2.41	-0.74
COc1ccc(C(=O)Nc2sc(C)c(C)c2CN2CC(C)OC(C)C2)cc1 (stereo unspecified)	1.47	0.05
CCOc1ccc(S(=O)(=O)NCc2ccco2)cc1	1.31	0.44
O=C(O)/C(=C1/OC(=O)c2ccccc21)c1ccccc1	0.64	-0.58
CC(C)C(=O)NNC(=O)CSc1nc(C2CCCCC2)nc2ccccc12	0.18	0.36
CC(=O)Nc1ccc(C(=O)NCCc2ccccc2)cc1	1.13	-0.31
COc1ccc(Nc2nc(Cl)nc(Nc3ccc(OC)cc3)n2)cc1	0.77	0.76
O=S(=O)(CCN1CCSCC1)c1ccccc1	0.81	-0.46
COc1cc(S(=O)(=O)NCc2ccc3c(c2)OCO3)c(OC)cc1C	1.22	-2.36
C=CCc1c(C)nc(-c2ccccc2)nc1N/N=C/c1ccncc1	1.38	0.57
O=C(O)CCCCCNC(=O)Cn1nnc2ccccc2c1=O	0.64	1.56
COc1ccc(N2CCN(c3ccc(N4C(=O)COCC4=O)cc3[N+](=O)[O-])CC2)cc1	0.66	0.22
COc1ccccc1N(CC(=O)NC1CCCC1)C(=O)C1(C)CC(=O)N=C2C=CC(C)=CN21 (stereo unspecified)	2.7	-3.38
Cc1c(NC(=O)CSc2ncnc3c2cnn3-c2ccccc2)c(=O)n(-c2ccccc2)n1C	2.78	0.42
Cc1onc(-c2ccccc2Cl)c1C(=O)O/N=C(\N)c1ccccc1	1.08	-2.27
O=Cc1c(-c2ccccc2)cc2oc3ccccc3cc1-2	1.15	0.87
Cc1ccc(SC(C)C(=O)Nc2ccc(S(=O)(=O)N3CCOCC3)cc2)cc1 (stereo unspecified)	0.23	-0.36
CC(=O)Nc1ccc(C)c([N+](=O)[O-])c1	0.08	-1.13
O=C(COC(=O)c1cc(NS(=O)(=O)c2cccs2)ccc1O)Nc1ccc(F)c(F)c1F	0.52	-0.42
CCOc1ccc(C(C(=O)NC2CCCC2)N(C(=O)c2snc(C(N)=O)c2N)c2cccc(O)c2)cc1 (stereo unspecified)	1.79	0.16
O=C(/C=C/Nc1ccc(OC(F)(F)F)cc1)C(F)(F)F	0.56	0.02
CCOC(=O)c1oc2ccc(S(=O)(=O)n3nc(-c4ccc(OC)cc4)cc3N)cc2c1C	1.01	2.92
CCS(=O)(=O)N1CCC(C(=O)NCc2ccc(OC)cc2OC)CC1	1.33	-1.68
CC(C)n1c(SCC(N)=O)nc2c1c(=O)[nH]c(=O)n2C	1.11	-2.14
Cc1nccc(-c2ccc3c(c2)OCO3)n1	1.02	-2.27
O=C(CSc1nnc2ccccn12)NC(=O)Cc1ccccc1	0.02	-0.06
COc1ccc(S(N)(=O)=O)cc1-c1nnc2c3ccccc3c(C)nn12	0.86	0.35
FC(F)(F)c1cc(-c2ccco2)nc(NCc2cccnc2)n1	1.3	0.06
Cn1c(C(C#N)C(=O)c2ccco2)nc2ccccc21 (stereo unspecified)	0.22	1.04
CC(Cc1ccccc1)NC(=O)c1cc([N+](=O)[O-])ccc1Cl (stereo unspecified)	0.45	0.8
CC(CCc1ccccc1)NC(=O)CSc1ccccn1 (stereo unspecified)	0.02	-1.6
CC(=O)N1CCN(C(=O)Cn2c(=O)oc3ccccc32)CC1	1.41	-0.6
O=C(NCCc1ccccc1)C1CCCN1C(=O)Nc1ccccc1 (stereo unspecified)	0.83	-0.45
CCN(CC)CCCn1c2c(c(SCC(=O)N3CCCc4ccccc43)nc1=O)CCC2	2.64	-0.73
COc1ccccc1CNC(=O)C(=O)NCC1OCCN1C(=O)c1ccc(Cl)cc1 (stereo unspecified)	0.06	0.69
COC(=O)c1cc(CNC(=O)c2ccccc2Cl)ccc1OC	2.04	-0.92
CC(Oc1ccc(Br)cc1)C(=O)Nc1nc(-c2ccccn2)cs1 (stereo unspecified)	5.16	-0.01
COc1ccc(-c2nnc(SCC(=O)N3CCOCC3)o2)cc1	0.02	-1.55
Cc1nn(-c2ccccc2)c2sc(C(=O)n3cccn3)cc12	1.54	-0.16
Cn1c(=O)c2c(nc(SCC(=O)c3ccccc3F)n2C)n(C)c1=O	0.54	1.17
O=C1CCC(C(=O)Nc2ccc(Cl)cc2)N1 (stereo unspecified)	0.1	0.34
CCSCCOC(=O)C1=C(C)NC(=O)NC1c1ccccc1 (stereo unspecified)	1.89	1.4
COc1ccc(NC(=O)C2CCN(Cc3cnn(-c4ccccc4)c3-n3cccc3)CC2)cc1OC	0.96	0.27
Cc1ccccc1-c1nc2c3ccccc3nc(=S)n2[nH]1	0.95	-0.32
